HIV Env fusion – inhibitors of HIV-1 Env-driven cell-cell fusion, primary screen, HeLa-JRFL effector, CEM21 target cells, luciferase; inhibition, % at 12.3 µM; actives 1.1% (n = 360,000);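 active = mean replicate inhibition score of at least 50 and every replicate individually at or above 50; inconclusive = only one of the two criteria met; inactive = mean below 50 and not all replicates reaching 50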;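 also: 0% = plate neutral controls and 100% = maraviroc near 300 nM; one replicate is shown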
Yeast UUG start – modulators of yeast start codon fidelity, primary screen, whole organism, S. cerevisiae, single point, plate reader. S. cerevisiae UUG-firefly luciferase reporter, luminescence/redox ratio. actives 0.13% (n = 350,000). AID 602363, 2012. activity score, % at 18.7 µM;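 active = replicate mean at a twofold rise or more, about +100% in these data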;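 also: firefly luciferase made from a UUG start codon reports start codon fidelity; reporter light over untreated wells divided by growth signal over untreated wells; some hits fall short of that in this replicate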
MT1-MMP act inh – blockers of MT1-MMP proenzyme processing, primary screen, HT1080 RFP-PRO-GFP cells, GFP/RFP fluorescence; Matrix metalloproteinase-14 (Homo sapiens), P50281; GFP/RFP ratio fluorescence, overnight; percent of plate control window, DMSO zero; GFP/RFP ratio change, % at 20 µM; actives 0.061% (n = 360,000);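 active = GFP/RFP ratio change of at least 30% with cell ATP level not reduced by more than half and red fluorescence within 50% of control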; also: strong numbers were not always called active
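Test system: HT1080 RFP-PRO-GFP cells; Benchmarks: DMSO and RFP-L50D-GFP cell wells; Timing: cells overnight before dosing, compound overnight, 37 °C, 5% CO2; Compound: one 20 µM compound dose with 1% DMSO; Read-out: GFP/RFP fluorescence ratio.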
eIF4H FP inh – human eIF4H binding inhibitors, primary screen, translation initiation inhibitor project, biochemical, uHTS, fluorescence polarization; inhibition, % at 35 µM; eIF4H fluorescence polarization binding assay; Eukaryotic translation initiation factor 4H (Homo sapiens), Q15056; actives 0.94% (n = 290,000);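 active = 50% or more with normal probe brightness, or confirmed in later tests; inconclusive = above 50% with abnormal brightness, or retests that disagree; inactive = below 50% or failed in later tests; about a fifth of its hits are not listed in these tables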;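 also: calls also rest on retests at 20 µM and on dose response follow-up; 0% = protein and probe with vehicle and 100% = probe without protein; strong numbers were not always called active; many hits fall short of the cut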
Rce1 inh – yeast Rce1p protease inhibitors, primary screen, biochemical, fluorescence, cell-free homogeneous. CAAX prenyl protease 2 (Saccharomyces cerevisiae (strain ATCC 204508 / S288c)), Q03530. yeast membranes, quenched prenylated peptide cleavage fluorescence. calls only. actives 0.27% (n = 290,000). AID 2563, 2010;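 active = fall in fluorescence gain of 50% or more versus controls, with final raw signal at or below 3038400; inconclusive = same 50% fall but final raw signal above 3038400; inactive = fall in fluorescence gain under 50%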;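 also: plate controls were neutral control wells for no effect and wells lacking membranes for full effect; tested at 10 µM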
Target sequence (Q03530 whole entry, looked up): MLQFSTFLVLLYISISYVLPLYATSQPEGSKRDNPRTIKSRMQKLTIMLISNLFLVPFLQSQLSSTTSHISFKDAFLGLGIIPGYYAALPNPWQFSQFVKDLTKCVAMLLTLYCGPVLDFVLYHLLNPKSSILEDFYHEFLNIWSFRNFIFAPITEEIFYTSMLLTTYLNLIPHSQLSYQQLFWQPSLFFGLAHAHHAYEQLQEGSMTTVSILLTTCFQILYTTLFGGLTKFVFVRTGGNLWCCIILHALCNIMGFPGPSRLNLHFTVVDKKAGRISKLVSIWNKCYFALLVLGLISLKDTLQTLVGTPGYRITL
CSC inhib – cancer stem cell viability inhibitors, primary screen, luminescence; cancer stem cell-like cells viability; inhibition, % at 7.5 µM; actives 1.1% (n = 300,000); AID 2717, 2010;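 active = mean at 75% or more and at least half the replicates too; inconclusive = mean and replicates disagree; tested in HMLE shEcad cells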;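 also: 0% = median of negative and 100% = median of positive control wells; the first replicate is given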
PABP FP inh – PABP poly(A) RNA binding inhibitors, primary screen, biochemical, fluorescence polarization, uHTS. inhibition, % at 35 µM. Polyadenylate-binding protein 1 (Homo sapiens), P11940. actives 1% (n = 290,000);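 active = 50% or more with normal probe brightness, or confirmed in later tests; inconclusive = above 50% with abnormal brightness, or retests that disagree; inactive = below 50% or failed in later tests; about a fifth of its hits are not listed in these tables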;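 also: calls also rest on retests at 20 µM and on dose response follow-up; controls were probe without protein and protein plus probe with vehicle; some compounds called inactive have numbers as strong as hits; many hits fall short of the cut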
eIF4H FP inh retest – also measured in eIF4H FP inh; calls as there; inhibition, %; compound at 20 µM; confirmation average;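 mean of two retest wells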
PABP FP inh retest – also measured in PABP FP inh; calls as there; inhibition, %; compound at 20 µM; confirmation repeats;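 mean of two retest wells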
MT1-MMP act inh RFP – also measured in MT1-MMP act inh; calls as there; RFP signal change, %; measured here: RFP expression control read;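 0 = vehicle wells; hits needed this value within 50% of zero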
Active calls of the source: *; i = inactive; ? = inconclusive; · = not tested or not shown.

SMILES | HIV Env fusion | Yeast UUG start | MT1-MMP act inh | MT1-MMP act inh RFP | eIF4H FP inh | Rce1 inh | CSC inhib | PABP FP inh | others
CC(C)CN1CCN(Cc2c[nH]c3ccccc23)CC1CCO (configuration not stated) | 6 | -2 | -5 | 4 | 21 | i | -20 | 0
N=c1c2c(-c3ccccc3)c(-c3ccccc3)oc2ncn1CCN1CCOCC1 | -20 | · | -4 | -6 | -8 | i | 16 | 2
COc1ccc(NC(=O)CSc2ncnc3sc(C)cc23)cc1 | -9 | -19 | 2 | 4 | 1 | · | -7 | -5
COc1ccc(S(=O)(=O)N2CCCCCC2)cc1N(C)S(=O)(=O)c1ccc(Cl)cc1 | ? | 23 | -6 | -16 | -3 | i | 7 | 0
CCOc1ccc(S(=O)(=O)NCCc2ccccn2)cc1 | -8 | -6 | 0 | 3 | · | · | -12 | ·
Cc1ccc2occ(/C=C/C(=O)O)c(=O)c2c1 | · | -6 | 0 | 2 | -14 | i | -4 | -13
CCc1nc2ccc(C(=O)NCCOc3ccc(OC)cc3)cn2c1N(C)CCCc1ccccc1 | 22 | 3 | -1 | -17 | · | · | · | ·
O=C(CSCc1cccc(CSCC(=O)Nc2ccc3ccccc3c2)n1)Nc1ccc2ccccc2c1 | · | -2 | -11 | -22 | -4 | i | 9 | -4
Cc1ncoc1C(=O)NCc1ccccc1Cl | · | · | -2 | 0 | -8 | i | -11 | -3
COc1cccc(CC2(CO)CCCN(Cc3ccc4c(c3)OCCO4)C2)c1 (configuration not stated) | -16 | 0 | 0 | 1 | 6 | i | 6 | 7
O=C(N/N=C/C(Cl)=C\c1ccccc1)c1cccs1 | -135 | -12 | 4 | 0 | -4 | i | 17 | -13
CC(C)(C)NC(=O)COc1ccc(CNc2ccc3[nH]c(=O)[nH]c3c2)cc1 | -36 | -9 | -4 | 5 | 44 | i | -9 | 43
COc1ccccc1NC(=O)CC1S/C(=N/N=C(\C)C2CCCCC2)NC1=O (configuration not stated) | 5 | -19 | 1 | 1 | 6 | i | -2 | -4
CN(Cc1ccc(C(C)(C)C)cc1)C(=O)C1CCN(C(=O)Nc2ccccc2)CC1 | 15 | -1 | -2 | -13 | · | i | 30 | ·
Cc1nn(C)c(Cl)c1CN1CCCC(C(=O)Nc2cccc(-n3cccn3)c2)C1 (configuration not stated) | 34 | -8 | 1 | -11 | 7 | i | -26 | 7

The list goes on; it opens with the 6 that closed the last part.
SMILES | HIV Env fusion | Yeast UUG start | MT1-MMP act inh | MT1-MMP act inh RFP | eIF4H FP inh | Rce1 inh | CSC inhib | PABP FP inh | others
COc1cccc(CC2(CO)CCCN(Cc3ccc4c(c3)OCCO4)C2)c1 (configuration not stated) | -16 | 0 | 0 | 1 | 6 | i | 6 | 7
O=C(N/N=C/C(Cl)=C\c1ccccc1)c1cccs1 | -135 | -12 | 4 | 0 | -4 | i | 17 | -13
CC(C)(C)NC(=O)COc1ccc(CNc2ccc3[nH]c(=O)[nH]c3c2)cc1 | -36 | -9 | -4 | 5 | 44 | i | -9 | 43
COc1ccccc1NC(=O)CC1S/C(=N/N=C(\C)C2CCCCC2)NC1=O (configuration not stated) | 5 | -19 | 1 | 1 | 6 | i | -2 | -4
CN(Cc1ccc(C(C)(C)C)cc1)C(=O)C1CCN(C(=O)Nc2ccccc2)CC1 | 15 | -1 | -2 | -13 | · | i | 30 | ·
Cc1nn(C)c(Cl)c1CN1CCCC(C(=O)Nc2cccc(-n3cccn3)c2)C1 (configuration not stated) | 34 | -8 | 1 | -11 | 7 | i | -26 | 7
Cc1ccccc1SCC(=O)Nc1ccc(N2CCOCC2)cc1 | 2 | · | 0 | -1 | 7 | i | 13 | -1
COc1cccc(-c2noc(Cn3nc(C)c([N+](=O)[O-])c3C)n2)c1 | · | · | -3 | 0 | 2 | i | -6 | 6
COc1ccc(C(NC(=O)/C=C/c2ccco2)c2ccc(OC)cc2)cc1 | 1 | · | -1 | 4 | 46 | i | -14 | -3
CCn1c(-c2cccnc2Cl)nc2cc(Cl)c(Cl)cc21 | 7 | -2 | 0 | 3 | 4 | i | 11 | 4
Cc1ccc(NC(=O)CN(C)C(=O)/C=C/c2cccc(F)c2)cc1 | 15 | · | 1 | 0 | 7 | i | · | 28
O=S(=O)(Cc1cc(-c2ccccc2)no1)c1ccccc1 | -18 | · | -7 | -5 | 0 | i | -13 | -10
O=C(O)CSCC(=O)Nc1ccccn1 | 21 | · | 2 | 0 | -21 | i | -2 | 2
CCN(CC)S(=O)(=O)c1cc(NC(=O)C(C)OC(=O)c2[nH]c(C)c(C(C)=O)c2C)ccc1C (configuration not stated) | · | 10 | -3 | -20 | -5 | i | -7 | -6
Cc1ccc(SCC(=O)N2c3ccccc3Sc3ccccc32)cc1 | · | -11 | -5 | -15 | -2 | i | 20 | 2
N#CNC(=Nc1cccc(Cl)c1)Oc1ccccc1 | 2 | -6 | 1 | 0 | -3 | i | 10 | -10
Cc1ccc(OCC(=O)NN2C(=O)c3ccccc3C2=O)c(C)c1 | · | -5 | -1 | 1 | -9 | i | -12 | 4
CC(=O)C(C)Oc1ccc(Cc2ncc(C(F)(F)F)cc2Cl)cc1 (configuration not stated) | 9 | · | 2 | 2 | 3 | i | 11 | 13
COC(=O)[C@H](CCSC)NC(=O)N1CCN(c2cccc(C(F)(F)F)c2)CC1 | -2 | -1 | -3 | -2 | -5 | i | -8 | 3
CN(C)S(=O)(=O)c1cccc(-c2nnc(-c3ccccc3)o2)c1 | · | · | 3 | -4 | 1 | i | -3 | 6
CCN(CC)CCCNC(=O)c1nn(-c2cccc(OC)c2)c(=O)c2ccccc12 | · | 5 | -14 | -3 | -1 | i | 4 | 3
CN(C(=O)CSc1cc(Cl)ccc1Cl)C1CCS(=O)(=O)C1 (configuration not stated) | 4 | -11 | 2 | 4 | · | · | -14 | ·
COc1ccc(NS(=O)(=O)c2cccc(NC(=O)c3cnccn3)c2)cc1Br | 16 | -5 | 3 | -13 | 1 | i | -4 | ?
COc1ccc(CCNC(=O)c2cc(=O)n(C)c(=O)n2C)cc1OC | 10 | · | -2 | 2 | 3 | i | -24 | 12
CC(C)NC(=O)c1sc(=S)n2c1[nH]c(=O)c1ccc(C(=O)NCCc3ccc(Cl)cc3)cc12 | 11 | -3 | 2 | -6 | -8 | i | 6 | 53 | eIF4H FP inh retest=12;PABP FP inh retest=15
Cc1cc(NC(=O)c2ccco2)no1 | · | -9 | 2 | 7 | -10 | i | -19 | -6
COc1cccc(/C=N/Nc2ncnc3scc(-c4ccccc4)c23)c1OC | · | -20 | 4 | -4 | -8 | i | 39 | 6
Cc1nc2ccc(NC(=O)NC(=O)c3c(Cl)cccc3Cl)cc2o1 | 1 | · | 3 | -4 | -17 | i | -8 | 7
Cc1cc(C(=O)N2CCCC(C(=O)c3cc(F)ccc3F)C2)c(C)o1 (configuration not stated) | 18 | · | 5 | 1 | 8 | i | -15 | -1
CCN(CC)S(=O)(=O)c1ccc2[nH]cc(C(=O)NCCc3ccc(OC)c(OC)c3)c(=O)c2c1 | · | -4 | 2 | -6 | -2 | i | -2 | 6
CC(C)CN1C(=O)C(=O)N(CC(=O)NCCCc2ccccc2)C1=O | 13 | 6 | 4 | 6 | · | · | · | ·
CCOC(=O)[C@H]1[C@H]2COc3ccc(Cl)cc3[C@@H]2N2C(=O)CN(CC3CCCO3)C(=O)[C@@]12C (some centres not stated) | -4 | 1 | -1 | 0 | · | · | -4 | ·
OC(CCN1CCC2(CC1)OCCO2)C(F)(F)F (configuration not stated) | 15 | · | 4 | 5 | 2 | i | 0 | 5
Cc1c(Cl)cccc1NC(=S)NCC(C)C | 6 | · | 3 | 7 | 9 | · | -6 | 1
COc1ccc(Cl)cc1N/C(N)=N/c1nc(C)cc(C)n1 | 11 | -11 | 0 | -1 | -2 | i | · | -2
O=C(Nc1ccccc1N1CCOCC1)c1cc(Cl)c2c(c1)OCO2 | -37 | -16 | 0 | -4 | · | · | · | ·
COc1cccc(OC)c1C(=O)NNC(=O)c1ccccc1-n1cccc1 | 0 | · | -1 | 1 | -8 | i | -4 | 8
COc1cc(NS(=O)(=O)c2ccc(NC(=S)NC(=O)COc3ccccc3OC)cc2)nc(OC)n1 | 12 | -17 | -1 | -1 | 1 | i | 9 | 9
OCCCn1c(C2CCCN2c2nc(-c3ccc(F)cc3)cs2)nc2cc(C(F)(F)F)ccc21 (configuration not stated) | 16 | -13 | -4 | -11 | · | i | -9 | ·
O=C(CN1CCN(S(=O)(=O)c2ccc(F)c(Cl)c2)CC1)N1CCc2ccccc21 | 1 | -2 | 1 | -1 | · | · | · | ·
COc1ccc(C(=O)COC(=O)CN2CC(=O)Oc3ccccc32)cc1Br | · | -7 | 7 | 5 | 8 | · | 32 | 4
C=CCNC(=S)N1CCC2CC1c1c(Cl)cccc12 (configuration not stated) | -16 | -16 | 4 | 3 | · | · | · | ·
O=C(Nc1ccc(CN2CCOCC2)cc1)c1ccc2ccccc2c1 | -62 | -19 | 7 | -10 | 1 | i | 1 | -7
CC(C)(C)NC(=O)C(c1ccc(Cl)cc1)N(CCO)C(=O)c1snc(C(N)=O)c1N (configuration not stated) | -130 | 0 | 3 | -3 | 0 | i | -10 | 7
C=C(C)CNC(=S)N/N=C/c1ccc(NC(C)=O)cc1 | 20 | -15 | 2 | -3 | -5 | i | -6 | 4
Cc1nonc1NC(=O)CSc1nc2cc(Cl)ccc2c2c1CCCC2 | · | · | 3 | 5 | 1 | i | 12 | 6
O=C(COc1ccc(C(=O)c2ccc(F)cc2)cc1)NCc1ccc(F)cc1 | -183 | -6 | -1 | -12 | -4 | i | 51 | -11
CN(Cc1ccccc1)C(=O)COC(=O)C12CC3CC(CC(Br)(C3)C1)C2 | 15 | -1 | 11 | -9 | · | · | -12 | ·
Cc1ccccc1NC(=O)Cc1nc(COC(=O)CCC(=O)c2ccccc2)cs1 | 2 | -10 | -6 | 1 | · | · | · | ·
COC(=O)c1ccc(/C=N\N2CCN(Cc3ccc(C)cc3)CC2)cc1 | · | -7 | 4 | -6 | -1 | i | -18 | 3
COc1ccc(CCNC(=O)CCN2C(=O)COc3ccccc32)cc1OC | · | -5 | 7 | 6 | 2 | i | -4 | -7
Cc1ccc(NC(=O)CN2C(=O)S/C(=C\c3cccn3-c3cccc(C(=O)O)c3)C2=O)cc1C | 13 | · | 1 | 3 | 70 | · | 0 | 32* | eIF4H FP inh retest=5;PABP FP inh retest=72*
COc1ccc(C(=O)CC(C(=O)O)c2ccc3c(c2)OCO3)cc1OC (configuration not stated) | 3 | -4 | -1 | 3 | · | · | · | ·
